Screening results from PubChem BioAssay.
gsp antagonist: antagonists of gsp mutant (McCune-Albright syndrome). Potency, µM (highest dose often 76.9 µM), inactives show at the top dose activity change, negative = inhibition, hits mostly inhibitors. gsp-mutant cells, cAMP HTRF, 30 min; control for the full effect not named in the record. hit rate 0.4% among 340,000. AID 624288; active = falling curve of any shape with a large fitted effect; inconclusive = falling curve, mostly with a smaller effect; inactive = flat or rising curve; cell line not stated here;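 further: intracellular cAMP measured with PDE inhibitor Ro 20-1724 present during compound exposure; potency means the concentration at half of the fitted maximal effect; on the % scale 0 is the no-effect control and ±100 the full control effect; nearly all actives have a fitted effect of over 65% in size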
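Cells in G418 medium, seeded 16-24 h, 37C; buffer exchange to DPBS + 1 mM CaCl2, 0.5 mM MgCl2, 0.05% BSA; cpds in DMSO + […] (300 uM stock), 30 min 37C; HTRF cAMP detection.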
TRPV1 PAM: potentiators of human vanilloid receptor 1 (TRPV1). Q8NER1. TRPV1-expressing cells, Fluo-8 calcium influx, capsaicin EC20 potentiation; host cell line not named in the record; control for the full effect not named in the record. potentiation, % at 8.33 µM. hit rate 0.02% among 320,000; active means potentiation above 80%; inconclusive means 30% to 80%; inactive means below 30%; further: 0% is about no effect
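Cells expressing TRPV1 were dye-loaded with Fluo-8 and read kinetically: 10 s baseline, 3 min after compound (agonist portion), then 2 min after EC20 capsaicin (allosteric enhancer portion). Calcium-bound dye fluorescence at 480/520 nm.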
TRPML1 blocker: human mucolipin-1 channel inhibition | hit rate 0.02% among 390,000 | TRPML1-inducible cells, Ca2+ dye fluorescence, FDSS; active compounds read low; inhibition of EC80 agonist-evoked calcium signal | AID 624415 | activity change, negative = inhibition, % (test concentration not listed); in the data active means activity change below about -50%; inconclusive means about -30% to -50%; inactive means above about -30%;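 further: stimulus is agonist 54-4 at its EC80 concentration; on the % scale 0 is the no-effect control and ±100 the full control effect; compound concentration not given in the record; the text of the record puts the active cut at -80%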
Target sequence (Q9GZU1 whole entry, looked up): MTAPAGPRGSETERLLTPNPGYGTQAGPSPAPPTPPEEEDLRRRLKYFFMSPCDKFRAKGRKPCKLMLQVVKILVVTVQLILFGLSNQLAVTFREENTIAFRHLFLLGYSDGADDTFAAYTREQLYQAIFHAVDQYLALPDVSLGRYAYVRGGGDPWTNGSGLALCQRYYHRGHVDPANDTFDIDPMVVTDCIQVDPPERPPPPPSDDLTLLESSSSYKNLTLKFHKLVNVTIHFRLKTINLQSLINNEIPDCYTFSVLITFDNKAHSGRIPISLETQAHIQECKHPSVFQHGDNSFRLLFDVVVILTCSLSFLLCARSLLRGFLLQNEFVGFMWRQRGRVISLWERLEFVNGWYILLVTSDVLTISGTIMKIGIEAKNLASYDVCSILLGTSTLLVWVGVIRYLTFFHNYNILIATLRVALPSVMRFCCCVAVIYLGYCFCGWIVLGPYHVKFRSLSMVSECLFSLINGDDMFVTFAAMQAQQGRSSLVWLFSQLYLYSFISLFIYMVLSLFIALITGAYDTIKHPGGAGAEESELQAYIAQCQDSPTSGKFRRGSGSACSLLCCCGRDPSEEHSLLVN
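TRPML1-DL cells, Tet-induced overnight (~16 h, 37 °C) at 1,500 cells/well, were loaded with Ca8 no-wash dye plus quencher for 45-90 min at room temperature. Compounds were pinned during FDSS kinetic reading; agonist 54-4 at EC80 (4 uM final) then added.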
Sfp PPTase inh: blocks B. subtilis Sfp PPTase activity; Q9F4F7; Biochemical Sfp PPTase activity, qHTS; Potency, µM, inactives show max response, negative = inhibition, actives largely listed as inhibitors; hit rate 3.5% among 310,000; active means well fitted inhibition curve with a large enough effect; inconclusive means small, poorly fitted or top-dose-only effect, or another doubt; inactive means no such curve, though single readings can be large or run the other way;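 further: the enzyme is Sfp with the accession as filed and its product quenches rhodamine fluorescence; potency means the concentration at half of the fitted maximal effect; 0% = enzyme reaction without inhibitor and -100% = no enzyme wells; top concentration of the series not given in the record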
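Compounds were incubated with enzyme (final 15 nM) for 15 min at room temperature before substrate addition started the reaction. Fluorescence at 525 nm excitation, 598 nm emission was recorded immediately and after 30 minutes.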
ClpP mod: qHTS Assay for Activators of ClpP; purified B. subtilis ClpP, FRET peptide cleavage, 20 min; AID 651965, 2013; Potency, µM (top dose mostly 57.5 µM), without a hit: at the top dose activity change, negative = active; hit rate 1.9% among 340,000; ATP-dependent Clp protease proteolytic subunit (Bacillus subtilis (strain 168)), P80244; active = well fitted falling curve with a large enough effect; inconclusive = small, poorly fitted or top-dose-only effect; inactive = no such curve, though single readings can be large or run the other way; further: potency means the concentration at half of the fitted maximal effect; the source files actives as falling curves though it sought activators and does not explain the sign; nearly all actives have a fitted effect of over 65% in size; many hits overshoot -100%
Target sequence (P80244 whole entry, looked up): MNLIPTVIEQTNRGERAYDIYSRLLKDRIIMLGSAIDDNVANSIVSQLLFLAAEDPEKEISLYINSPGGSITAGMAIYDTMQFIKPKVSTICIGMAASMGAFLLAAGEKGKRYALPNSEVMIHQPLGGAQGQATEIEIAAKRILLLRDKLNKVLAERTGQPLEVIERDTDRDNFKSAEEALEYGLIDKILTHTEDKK
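Buffer: 100 mM Tris/HCl pH8, 100 mM KCl, 0.05% low protease BSA, 2.5% glycerol, 0.01% Tween-20. ClpP 10 microg/mL final; 20 min RT; delta FRET normalized to ADEP and DMSO controls.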
gsp agonist: activates gsp, the McCune-Albright syndrome mutation; Potency, µM (highest dose often 76.9 µM), without a hit: top-dose activation (cAMP increase), most hits filed as activators; gsp mutant cells, cAMP HTRF, 30 min; control for the full effect not named in the record; hit rate 0.13% among 340,000; AID 624287; active = well fitted activation curve with a large enough effect; inconclusive = small, poorly fitted or top-dose-only effect, or another doubt; inactive = no such curve, though single readings can be large or run the other way; cell line not stated here;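 further: phosphodiesterase inhibitor Ro 20-1724 added with compounds to block cAMP breakdown; potency means the concentration at half of the fitted maximal effect; nearly all actives have a fitted effect of over 60% in size; about a fifth of the inactives were tested at one dose only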
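Cells stably selected in G418 were plated at 2000/well, grown 16-24 hr, then given compounds in DMSO with the PDE inhibitor […] (300 uM solution added) for 30 min at 37C; cAMP was read by HTRF.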
Menin MLL FP FL: menin-MLL binding inhibition, fluorescein peptide. 290,000 tested, under 10 active. Fluorescence polarization, fluorescein-MLL peptide displacement from menin. FP activity change, % at 61.4 µM; inconclusive = falling polarisation curve, or a change in total fluorescence; inactive = total fluorescence flat and polarisation flat or rising; no compound was filed as active; the % refers to the polarisation; negative = inhibition;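 further: % of control where 0% means no effect; inhibitors lower the polarisation; unlabelled MLL peptide was the positive control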
Starred values were filed as active, the others as inactive; & = joins results of further samples; [ ] = remark or other dose.

For Clc1ccc(-c2nnc(-c3ccccc3Cl)o2)cc1 the results were gsp antagonist 3.4%, TRPV1 PAM -19.3, TRPML1 blocker -2.1, Sfp PPTase inh 70.8µM*, ClpP mod inconclusive, gsp agonist 12.0% and Menin MLL FP FL 2.4.
For S=C(NCCc1ccccc1)NC1CC2CCC(C1)N2Cc1ccccc1 (stereo not drawn) the results were gsp antagonist 4.8%, TRPV1 PAM 0.6, TRPML1 blocker 1.0, Sfp PPTase inh 8.6%, gsp agonist -0.5%[15.4 µM] and Menin MLL FP FL 4.8.
For O=C1CC/C=C\C[C@@H](CC(=O)N(CCO)Cc2ccccc2)C(=O)N[C@H](Cc2ccccc2)CO1 the results were gsp antagonist 7.0%, TRPML1 blocker 22.0, ClpP mod -1.4% and gsp agonist -59.6%[inhibitor].
CCOC(=O)C(CC)(CCC(=O)O)c1csc(Nc2ccc(C)cc2)n1 (stereo not drawn) was read as gsp antagonist -9.0%, TRPV1 PAM -2.1, TRPML1 blocker 3.2, Sfp PPTase inh -5.8%, gsp agonist -6.5%[15.4 µM] and Menin MLL FP FL -1.8.
Cc1cccc(C(=O)Nc2ncc(CN3CCOCC3)s2)c1 was read as gsp antagonist 4.2%, TRPV1 PAM -0.4, TRPML1 blocker -12.4, Sfp PPTase inh 19.1%, ClpP mod -0.3%, gsp agonist -2.9% and Menin MLL FP FL 3.2.
CCOCCCNC(=O)C(c1ccc(C)cc1)N(Cc1ccc2c(c1)OCO2)C(=O)CNC(C)=O (stereo not drawn) was read as gsp antagonist 0.8%, TRPV1 PAM -2.7, TRPML1 blocker 10.8, Sfp PPTase inh 17.6%, ClpP mod 0.6%, gsp agonist -8.1% and Menin MLL FP FL -1.4.
`Cc1ccc(C(=O)NCC(=O)OC(C)C(=O)Nc2ccc(N(C)C)cc2)s1` (stereo not drawn) gave gsp antagonist -12.1%, TRPV1 PAM 0.6, TRPML1 blocker 2.7, Sfp PPTase inh -2.9%, ClpP mod 2.9%, gsp agonist -2.7% and Menin MLL FP FL 0.7.
For CC(=O)c1cc2c(cc1NC(=O)C1CN(C(C)=O)c3ccccc3O1)OCO2 (stereo not drawn) the results were gsp antagonist 2.6%, TRPML1 blocker 4.3, ClpP mod 20µM* and gsp agonist 9.7%[15.4 µM].
`COc1cc2c(C#CCO)c(-c3ccc(C#N)cc3)oc(=O)c2cc1OC` gave gsp antagonist -7.9%, TRPML1 blocker -0.6, ClpP mod 4.0% and gsp agonist inconclusive.
For Cc1[nH]c2ccccc2c1/C=N/NC(=O)C1CC1(c1ccccc1)c1ccccc1 (stereo not drawn) the results were gsp antagonist -7.7%, TRPV1 PAM 4.1, TRPML1 blocker -12.5, Sfp PPTase inh 2.4%, ClpP mod 0.3%, gsp agonist -1.4% and Menin MLL FP FL 8.8.
For CCOc1ccc(/C=C2\SC(=S)N(CCC(=O)N(CCO)c3ccccc3)C2=O)cc1 the results were gsp antagonist -6.8%, TRPV1 PAM 3.0, TRPML1 blocker 3.3, Sfp PPTase inh inconclusive, gsp agonist -9.0% and Menin MLL FP FL 1.9.
For COC(=O)CSc1nnc(-c2ccccc2O)n1-c1ccc(C)cc1 the results were gsp antagonist -34.9%, TRPV1 PAM 7.1, TRPML1 blocker 26.0, Sfp PPTase inh -27.3%, ClpP mod -0.4%, gsp agonist -24.1% and Menin MLL FP FL -1.4.
`CCN(C(=O)COC(=O)c1ccc2ccccc2n1)c1c(N)n(Cc2ccccc2)c(=O)[nH]c1=O` gave gsp antagonist 1.5%, TRPV1 PAM -8.2, TRPML1 blocker -6.9, ClpP mod -2.5% and gsp agonist -11.1%.
For COc1ccc(S(=O)(=O)N(CCc2ccccc2)CC(=O)O)cc1OC the results were gsp antagonist 2.1%, TRPV1 PAM 0.7, TRPML1 blocker 7.6, Sfp PPTase inh 24.0%, ClpP mod -0.6%, gsp agonist 8.3% and Menin MLL FP FL -1.2.
For Cc1ccc(S(=O)(=O)Nc2nc3ccccc3nc2NCc2ccco2)cc1 the results were gsp antagonist -7.3%, TRPV1 PAM 10.5, TRPML1 blocker 19.1, Sfp PPTase inh -36.7%, ClpP mod inconclusive, gsp agonist inconclusive and Menin MLL FP FL inconclusive.
C[C@@H]1COC(=O)CCC/C=C\C[C@@H](CC(=O)N(CCO)Cc2ccccc2)C(=O)N1 was read as gsp antagonist 12.6%, TRPML1 blocker -5.5 and ClpP mod 0.1%.
Screening Cc1ccccc1-c1nc(-c2cccnc2)no1 returned gsp antagonist -2.1%, TRPV1 PAM 2.8, TRPML1 blocker -4.7, Sfp PPTase inh 14.6%, ClpP mod 1.3%, gsp agonist -4.8% and Menin MLL FP FL 1.9.
For CN(CC(=O)Nc1ccc(F)c(F)c1F)C(=O)CCc1nc2sc3c(c2c(=O)[nH]1)CCCC3 the results were gsp antagonist -4.9%, TRPV1 PAM 7.2, TRPML1 blocker 5.9 and gsp agonist 17.9%[15.4 µM].
For CC1CCN(c2ccc(-c3cccc(NC(=O)C(F)(F)F)c3)nn2)CC1 the results were gsp antagonist inconclusive, TRPV1 PAM 13.4, TRPML1 blocker -9.0, Sfp PPTase inh 15.6%, gsp agonist 6.3%[15.4 µM] and Menin MLL FP FL 0.9.
For Cn1c(N)c(C(=O)Nc2ccc(-c3ccccc3)cc2)sc1=S the results were gsp antagonist inconclusive, TRPV1 PAM 13.8, TRPML1 blocker 8.6, Sfp PPTase inh 3.16µM*, ClpP mod -1.9%, gsp agonist 1.9% and Menin MLL FP FL 9.7.
CCN(CC)CCN(C(=O)c1ccc2c(c1)CCCC2)c1nc2ccc(C)cc2s1 was read as gsp antagonist -18.6%, TRPV1 PAM -4.9, TRPML1 blocker 7.4, Sfp PPTase inh inconclusive, ClpP mod -10.3%, gsp agonist 42.5% and Menin MLL FP FL 0.1.
O=C1NC(CCc2ccccc2)C(=O)N1Cc1ccccc1Cl (stereo not drawn) was read as gsp antagonist 6.9%, TRPV1 PAM -10.4, TRPML1 blocker -8.6, Sfp PPTase inh 12.6%, ClpP mod -1.4%, gsp agonist -2.7% and Menin MLL FP FL 1.6.
CCCOc1ccc(N2C(=O)CC(N3CCC(C(=O)OCC)CC3)C2=O)cc1 (stereo not drawn) was read as gsp antagonist 9.9%, TRPV1 PAM -3.5, TRPML1 blocker 16.5, Sfp PPTase inh 13.0%, ClpP mod 0.0%, gsp agonist -13.6% and Menin MLL FP FL 1.4.
For O=C(CCNS(=O)(=O)c1ccc(F)c(Cl)c1)NCc1ccccc1F the results were gsp antagonist 4.5%, TRPML1 blocker -25.7, ClpP mod -0.5% and gsp agonist -8.7%.
For CC(Sc1nnnn1C)C(=O)NC1CCCC1 (stereo not drawn) the results were gsp antagonist 4.1%, TRPML1 blocker 15.4, ClpP mod -0.7% and gsp agonist 10.0%[15.4 µM].
Screening Cc1cc(-c2cc(-c3ccc(Cl)cc3)on2)nc(NCC2CC2)n1 returned gsp antagonist 4.8%, TRPV1 PAM 26.7, TRPML1 blocker 8.3, Sfp PPTase inh 11.2%, ClpP mod 14.1µM*, gsp agonist -14.4% and Menin MLL FP FL 4.6.
`O=C1CC(c2ccccc2)n2nc(NC(=O)c3cccnc3)nc2N1` (stereo not drawn) gave TRPV1 PAM 25.1, Sfp PPTase inh 8.7% and Menin MLL FP FL -1.4.
For O=C(NCCCCc1ccccc1)c1cccc(NC(=O)c2ccccc2)c1 the results were gsp antagonist -11.4%, TRPML1 blocker 29.2 and ClpP mod -1.8%.
For COc1ccc(OCc2nc(N)nc(Nc3cccc(C)c3C)n2)cc1 the results were gsp antagonist -3.8%, TRPML1 blocker 12.1, Sfp PPTase inh 0.9%, ClpP mod 9.3%, gsp agonist -27.8% and Menin MLL FP FL -0.2.
O=C(Nc1ccc(-n2ccc(C(F)(F)F)n2)cc1)Nc1cccc(Cl)c1 was read as TRPV1 PAM -11.6, Sfp PPTase inh 15.0% and Menin MLL FP FL 3.1.
For O=C(Cn1cc([N+](=O)[O-])cn1)N1CCCc2ccccc21 the results were gsp antagonist 6.6%, TRPV1 PAM 2.0, TRPML1 blocker -3.5, Sfp PPTase inh 16.2%, gsp agonist 6.9%[15.4 µM] and Menin MLL FP FL -5.1.
For CC(C)[C@H](NC(=O)c1ccc(Br)cc1)C(=O)NC1CCCCC1 the results were gsp antagonist 0.2%, TRPV1 PAM -20.7, TRPML1 blocker -16.6, ClpP mod -1.2% and gsp agonist -3.3%.
Cc1ccc(Cl)cc1NC(=O)COC(=O)CC(C)(C)C was read as gsp antagonist -3.5%, TRPV1 PAM -11.1, TRPML1 blocker 7.2, Sfp PPTase inh 9.1%, gsp agonist 3.2%[15.4 µM] and Menin MLL FP FL -8.3.
Screening CCCn1c(SC(C)C(=O)N2CCOCC2)nc2ccc(Br)cc2c1=O (stereo not drawn) returned gsp antagonist -9.4%, TRPV1 PAM -6.8, TRPML1 blocker -4.4, ClpP mod -3.5% and gsp agonist -8.2%.
Screening C=C[C@@](C)(O)CC[C@@H]1[C@@]2(C)CCCC(C)(C)[C@@H]2CC[C@@]1(C)O returned gsp antagonist -3.8%, TRPV1 PAM -7.3, Sfp PPTase inh -0.3%&9.0%, ClpP mod 1.9% and Menin MLL FP FL inconclusive.
For CCOC(=O)Cn1c(C)c(Br)c(COC)c(C#N)c1=O the results were gsp antagonist -4.7%, TRPV1 PAM 2.7, TRPML1 blocker 11.1, Sfp PPTase inh 7.0%, gsp agonist 22.5% and Menin MLL FP FL 8.4.
For Cc1ccc(C(=O)N2CCN(C(=O)c3ccc(C)cc3)C2)cc1 the results were gsp antagonist 0.7%, TRPV1 PAM 0.9, TRPML1 blocker -6.5, Sfp PPTase inh 7.9%, gsp agonist 17.3% and Menin MLL FP FL 0.0.
For COc1cccc(N/C(SCc2ccccc2C)=C(/C#N)C(=O)NCc2cccs2)c1 the results were gsp antagonist -3.8%, TRPV1 PAM 14.2, TRPML1 blocker 23.0, Sfp PPTase inh 7.4%, ClpP mod -12.6%, gsp agonist 1.9% and Menin MLL FP FL -4.3.
`C#CCNC(=O)/C=C/c1ccc(C)cc1` gave gsp antagonist -4.3%, TRPV1 PAM -9.5, TRPML1 blocker -2.9, Sfp PPTase inh 11.8%, ClpP mod 0.5%, gsp agonist 28.2% and Menin MLL FP FL 3.1.
For Cc1ccc(C2CN(CCC(N)=O)C(=O)CO2)cc1 (stereo not drawn) the results were gsp antagonist 9.4%, TRPV1 PAM -22.0, TRPML1 blocker -10.2, ClpP mod -0.4% and gsp agonist 21.2%.
